Source: PubChem
Lassa entry inh – Lassa virus entry inhibition. Potency, µM (series often up to 37.9 µM), for inactives: at the top dose activity change, negative = inhibition, hits mostly inhibitors. Lassa virus pseudotype entry inhibition, cell reporter; control for the full effect not named in the record. 300,000 tested, 1.2% active; active means well fitted inhibition curve with a large enough effect; inconclusive means small, poorly fitted or top-dose-only effect, or effect the other way; inactive means flat fitted curve, though single readings scatter; tested in HEK293 cells; further: on the % scale 0 is the no-effect control and ±100 the full control effect; nearly all actives have a fitted effect of over 50% in size; luciferase read-out
Marburg entry inh – Marburg virus entry inhibition | AID 540276 | Potency, µM (highest dose often 37.8 µM), inactives show at the highest dose activity change, negative = inhibition, actives largely listed as inhibitors | 300,000 tested, 1.8% active | Marburg virus pseudotyped entry inhibition, cell reporter; control for the full effect not named in the record; about a third of the inactives were read at about 46 µM; active = well fitted inhibition curve with a large enough effect; inconclusive = small, poorly fitted or top-dose-only effect, or effect the other way; inactive = flat fitted curve, though single readings scatter; tested in HEK293 cells; about a fifth of its hits are not listed in these tables; further: on the % scale 0 is the no-effect control and ±100 the full control effect; luciferase read-out
NS1 function inh – inhibitors of influenza NS1 protein function | 270,000 tested, 0.4% active | S. cerevisiae slowed by influenza A NS1, growth recovery by OD600 | AID 2326 | Potency, µM (highest dose often 46.1 µM), for the others: at the top dose activity, positive = more growth; active means well fitted rising curve with a large enough effect; inconclusive means small, poorly fitted or top-dose-only effect; inactive means no such curve, though single readings can be large or run the other way; further: nearly all actives have a fitted effect of over 50% in size
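Compounds were scored for reversing the slow growth caused by influenza A NS1 in S. cerevisiae, measured by optical density at 600 nm. Assay medium contained 2% galactose at pH 6.0; NS1-free yeast of the same strain were the positive control.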
Cruzain noTriton – inhibitors of Trypanosoma cruzi cruzain without detergent; P25779; purified cruzain, Z-FR-AMC fluorescence, no detergent; Potency, µM, for inactives: max response, negative = inhibition, hits mostly inhibitors; 200,000 tested, 2.3% active; AID 1476;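 further: plate controls were enzyme without inhibitor for no effect and buffer without enzyme for full effect; nearly all actives have a fitted effect of over 40% in size; top concentration of the series not given in the record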
Target sequence (P25779 123-467 limits assumed): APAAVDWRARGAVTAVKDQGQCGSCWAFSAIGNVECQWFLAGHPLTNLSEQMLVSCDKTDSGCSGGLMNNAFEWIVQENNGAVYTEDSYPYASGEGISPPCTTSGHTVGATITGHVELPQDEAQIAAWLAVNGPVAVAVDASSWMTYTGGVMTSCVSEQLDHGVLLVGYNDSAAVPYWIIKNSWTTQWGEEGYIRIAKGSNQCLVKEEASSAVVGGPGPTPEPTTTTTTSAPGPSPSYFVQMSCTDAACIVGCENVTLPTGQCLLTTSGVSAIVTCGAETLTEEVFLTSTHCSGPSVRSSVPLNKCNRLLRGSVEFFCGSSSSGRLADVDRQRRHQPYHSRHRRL
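Purified cruzain at 1.5 nM, pre-incubated 15 min with compound at room temperature in 100 mM sodium acetate pH 5.5, 5 mM DTT, 0.00005% Triton X-100. Reaction started with 2 uM Z-FR-AMC; AMC fluorescence increase over 60 s gives rate.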
Cruzain inh Det – blocks cruzain activity in presence of Triton detergent; 200,000 tested, 0.43% active; Potency, µM, inactives show max response, negative = inhibition, hits mostly inhibitors; P25779; purified cruzain, Z-FR-AMC fluorescence, 0.01% Triton; AID 1478;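 further: plate controls were neutral wells for no effect and buffer without enzyme for full effect; nearly all actives have a fitted effect of over 40% in size; top concentration of the series not given in the record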
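Enzyme 1.5 nM, Z-FR-AMC 2 uM, NaOAc 100 mM pH 5.5, DTT 5 mM, Triton X-100 0.01%; 15 min RT compound preincubation; kinetic ex360/em450, 60 s delta.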
RE007 growth inh – less growth of the S. pombe RE007 Vpr strain. S. pombe RE007 Vpr strain, BacTiter-Glo ATP luminescence, 24 h; control for the full effect not named in the record. Potency, µM (doses to about 92.2 µM), without a hit: at the top dose activity change, negative = less growth. 360,000 tested, 0.21% active; active = well fitted falling curve with a large enough effect; inconclusive = small, poorly fitted or top-dose-only effect; inactive = no such curve, though single readings can be large or run the other way;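 further: on the % scale 0 is the no-effect control and ±100 the full control effect; nearly all actives have a fitted effect of over 50% in size; the assay follows cell death caused by Vpr and the record does not say whether a fall means rescue or toxicity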
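Fission yeast RE007 carrying one integrated HIV-1 vpr copy, seeded at OD 0.01 in PMG+AL medium with 23 nL pinned compound. Grown 24 h at 30 degrees; viability read by BacTiter-Glo luminescence after 5 min.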
SARS PLP yeast – SARS-CoV PLP inhibition in yeast | Potency, µM (top dose mostly 32.9 µM), without a hit: at the top dose activity, positive = growth rescue | AID 485353 | S. cerevisiae expressing SARS-CoV PLpro, growth rescue; control for the full effect not named in the record | 330,000 tested, 0.19% active; active means well fitted rising curve with a large enough effect; inconclusive means small, poorly fitted or top-dose-only effect; inactive means no such curve, though single readings can be large or run the other way; further: 0% is about no effect; nearly all actives have a fitted effect of over 55% in size; growth read by luminescence after 48 h
StopGo reporter – FMDV 2A StopGo reporter, luciferase signal. human cells with a luciferase reporter of 2A StopGo recoding; control for the full effect not named in the record. Potency, µM (highest dose often 57.9 µM), inactives show top-dose signal change, negative = less light. 410,000 tested, 1.2% active; active = well fitted falling curve with a large enough effect; inconclusive = small, poorly fitted or top-dose-only effect; inactive = no such curve, though single readings can be large or run the other way; tested in HEK293T cells; further: on the % scale 0 is the no-effect control and ±100 the full control effect; nearly all actives have a fitted effect of over 45% in size; luciferase light after 4 h
The depositor's hits bear a star; ? = inconclusive; / = not tested or not shown; & = joins results of further samples; [ ] = another dose, or the depositor's remark. Unless noted, the call rests on the fitted dose curve; in most records, active means well fitted curve in the direction sought with a large enough effect; inconclusive means small, poorly fitted or top-dose-only effect, or another doubt; inactive means no such curve, though single readings can be large; an effect the other way counts as inactive or inconclusive. Potency means the concentration at half of the fitted maximal effect.

SMILES | Lassa entry inh | Marburg entry inh | NS1 function inh | Cruzain noTriton | Cruzain inh Det | RE007 growth inh | SARS PLP yeast | StopGo reporter
Cc1cccc(/C=N/n2c(-c3ccccn3)n[nH]c2=S)c1 | / | / | 10% | 12% | -4.7% | / | 7% | /
CCCCNc1ccc(C(=O)O)cc1 | / | / | 0% | / | / | 0% | 1% | -9%
Cc1ccc(NC(=O)C(C)N2C(=O)c3ccccc3C2=O)c(C)c1 (stereo not given) | / | / | 32% | / | / | 2% | 6% | -16%
COCCn1c(=S)[nH]c2cc(C(=O)N3CCC(C(N)=O)(N4CCCCC4)CC3)ccc2c1=O | 21% | 10% | -7% | -9% | 2.4% | -2% | -7% | -14%
COc1ccc(CN2CCNC(=O)C2CC(=O)NCc2csc(C)n2)c(F)c1 (stereo not given) | / | / | 8% | / | / | 7% | -1% | -4%
CC(=O)N1N=C(c2cccnc2)CC1c1ccccc1O (stereo not given) | -1% | 11%[14.2 µM] | -5% | / | / | -6% | -1% | -18%
Cc1cccc(-n2ncc3c(NC4CCCC4)ncnc32)c1 | 12%[46.1 µM] | / | / | -12% | -1.2% | / | / | 9%
Cc1ccc(C)c(CSc2nc3c([nH]c4ccccc43)c(=O)n2C)c1 | 10%[46.1 µM] | / | / | -6% | -0.4% | / | / | 2%
COc1cccc(C(=O)N2CCCc3ccccc32)c1 | 10% | 0% | -6% | -9% | 1.0% | 9% | 2% | 14%
COc1ccc(C(C)(C)C)cc1NC(=O)c1cc(S(=O)(=O)N(C)C)ccc1N1CCCC1 | ? | ? | ? | ? | -4.6% | 3% | 5% | 14%
C=C(c1cn(C(C)=O)c2ccccc12)c1cn(C(C)=O)c2ccccc12 | 3%[46.1 µM] | -4% | / | / | / | -24% | / | -26%
Cc1ccc(NC(=O)CN2C(=O)NC3(CCCc4ccccc43)C2=O)c(C)c1 (stereo not given) | -18% | 2% | / | / | / | 8% | 3% | -5%
OC(COC(c1ccc(F)cc1)c1ccc(F)cc1)CN1CCc2ccccc2C1 (stereo not given) | -22% | ? | 5% | 6% | -2.6% | / | 6% | -21%
O=C(COC(=O)C(O)c1ccccc1)c1ccc2c(c1)OCCO2 (stereo not given) | 13% | 4% | 9% | -7% | -1.0% | 1% | 9% | 70%[activator]
CCOc1cc(C(=O)Nc2ccc3c(c2)OCO3)ccc1OC(F)F | -31% | 0% | -31% | 5% | -1.7% | -25% | -15% | /
CCOc1ccccc1N(C)C(=O)Cn1nc(Cc2cccnc2)c2ccccc2c1=O | 4%[46.1 µM] | 5%[46.1 µM] | / | -10% | -2.1% | / | / | -2%
CCCNC(=O)COC(=O)C1CCN(S(=O)(=O)c2ccc3c(c2)OCCO3)CC1 | ? | 4% | / | / | / | 2% | 9% | -8%
Cc1ccc(-c2cc(C(F)F)nc(S(C)(=O)=O)n2)cc1 | ? | ? | / | / | / | -14% | -7% | 32µM*
O=C(CCCC(=O)OCC(=O)c1ccc(Cl)cc1Cl)Nc1cc(C(F)(F)F)ccc1Cl | -2% | 8% | 8% | -1% | -5.8% | -12% | 3% | -23%
CCOC(=O)C1C(=O)NC(N2CCN(CC)CC2)=NC1c1ccccc1 (stereo not given) | -8% | -13% | -1% | 4% | 14% | 2% | -7% | -13%
O=C1NC(=O)/C(=C\c2ccccc2OCc2ccc([N+](=O)[O-])cc2)N1 | 0% | ? | 7% | -24% | -5.8% | 0% | 7% | 0%
COc1ccccc1CNC(=O)C(C)n1c(=O)cc(-c2ccccc2)c2c(C)nn(C)c21 (stereo not given) | -11%[46.1 µM] | / | / | ? | -7.3% | / | / | -16%
Cc1ccc(S(=O)(=O)NCC(=O)N(CC(=O)NCc2ccco2)Cc2ccc3c(c2)OCO3)cc1 | 7% | -8% | -5% | 12% | -2.7% | -3% | 5% | 16%
CCCNC(=O)c1ccc2c(c1)N=C(C)c1c(C)ccc(C)c1S2 | ? | ? | / | 3% | -7.9% | / | / | -21%

A few values from the entries so far:
Cc1ccc(-c2cc(C(F)F)nc(S(C)(=O)=O)n2)cc1 @ StopGo reporter: 32µM*
CCCNC(=O)c1ccc2c(c1)N=C(C)c1c(C)ccc(C)c1S2 @ Cruzain noTriton: 3%

(more compounds)
SMILES | Lassa entry inh | Marburg entry inh | NS1 function inh | Cruzain noTriton | Cruzain inh Det | RE007 growth inh | SARS PLP yeast | StopGo reporter
CCOC(=O)c1c(NC(=O)C(F)(OC)C(F)(F)F)sc(C(=O)N2CCCCC2)c1C (stereo not given) | -6% | 10%&0% | -60% | ? | -9.3% | 11% | -19% | 14%
CCCCn1nnnc1SCC(=O)Nc1cccc(C)c1 | / | -1%[46.1 µM] | -28% | / | / | -3% | 2% | 12%
COc1ccc(C2C(=O)N(C3CCCCC3)CC(=O)N2Cc2ccc3c(c2)OCO3)cc1 (stereo not given) | / | / | -32% | -4% | -1.7% | -10% | -4% | -5%
O=C(NCc1cccnc1)c1ccc(-c2ccc(Cl)cc2)o1 | / | / | 0% | / | / | -2% | -1% | 33%[activator]
Cc1ccccc1C(=O)NCCN1CCOCC1 | / | / | 3% | / | / | -1% | 0% | -4%
CC(C)CCn1cnc2c(cnn2-c2ccc(Cl)cc2)c1=O | 9% | 27% | 9% | -4% | -0.9% | 2% | 0% | 0%
C/C(=C/C(=O)N1CCN(C)CC1)C(=O)O | 9% | 20%&20% | 7% | -4% | 0.1% | 19% | 5% | -28%
Cc1ccc(-c2csc(NC(=O)CSc3nc(C)cc(=O)[nH]3)n2)cc1 | 11% | -9% | -55% | ? | -17% | -11% | ? | -16%
Cc1ccsc1/C=N/NC(=O)c1cccc(S(=O)(=O)Nc2ccccc2Cl)c1 | -14% | -1% | -12% | -25% | -8.0% | 21% | 1% | -29%
COc1ccccc1NC(=O)CN1C(=O)CSc2ccc(S(=O)(=O)N3CCCC3)cc21 | 14%[46.1 µM] | / | / | 0% | -0.2% | / | / | 4%
Cc1ccc(-c2nc3sc(CCNS(=O)(=O)c4cc(F)ccc4F)c(C)n3n2)cc1 | -27%[46.1 µM] | / | / | 0% | -7.6% | / | / | -16%
Cc1ccc2oc(C(=O)NCc3ncc(C)[nH]3)c(C)c2c1 | 8%[46.1 µM] | ? | 7% | / | / | -13% | 0% | 8%
CCOc1ccc(NC(=O)c2cnn3c2NC(c2cccc(OC)c2)=CC3c2ccccc2)cc1 (stereo not given) | ? | / | / | 0% | -10% | / | / | -22%
C#CC(C)OC(=O)Nc1cnccc1C(F)(F)F (stereo not given) | -18%[46.1 µM] | 10%[46.1 µM] | 5% | / | / | -15% | 0% | -2%
Cn1c(CCNC(=O)c2ccc(Cl)cc2)n[nH]c1=S | 7% | 2% | 22% | -3% | 3.4% | -6% | 0% | 5%
COc1ccc(-n2c(N)c(Br)c(=O)[nH]c2=O)cc1 | ? | -17% | ? | 0% | 3.7% | -3% | 4% | 4%
COc1ccc(CC(=O)NC2CC(=O)N(c3cccc(F)c3)C2)cc1OC (stereo not given) | ? | / | / | -7% | 1.5% | / | / | -9%
CN1CCCC(CC2Oc3ccccc3Sc3ccccc32)C1 (stereo not given) | ? | ? | -15% | 1% | -6.0% | -6% | -11% | -8%
Cn1c(=N)n(CC(=O)c2ccc(Br)cc2)c2ccccc21 | 10µM* | ? | / | / | / | -16% | / | -9%
CS(=O)(=O)c1ccc(S(=O)CC(=O)OCc2ccccc2)c([N+](=O)[O-])c1 (stereo not given) | ? | ? | / | / | / | -17% | -3% | 8.9µM*
O=C(N=C1SC2CS(=O)(=O)CC2N1CCc1ccc(F)cc1)C1CCCCC1 (stereo not given) | / | / | -5% | / | / | 6% | -6% | -13%
COc1cccc(/C=N/NC(=O)C(C)Cn2cnc3ccccc32)c1 (stereo not given) | / | / | 5% | / | / | -2% | 0% | -12%
O=C(NCC(c1ccco1)N1CCCC1)c1cn(Cc2ccccc2)nc1-c1ccccc1 (stereo not given) | -2% | ? | / | / | / | -3% | 3% | -5%
Cc1ccc(OCC(=O)Nc2ccc3c(c2)C(=O)NC3=O)c(C)c1 | / | / | 8% | / | / | 2% | 0% | -23%
CCSc1nc2c([nH]c3ccccc32)c(=O)n1-c1cccc(OC)c1 | ? | / | / | 3% | -7.9% | / | / | -26%
COc1ccc(C(=O)N/N=C/c2ccc(OC)c(COc3ccccc3)c2)cc1 | -23%[46.1 µM] | ? | 10% | / | / | -6% | 1% | 4%
C=C(C)CN(CC)C(=O)CSc1ccc(S(=O)(=O)N2CCN(C)CC2)cn1 | 3% | ? | / | / | / | -15% | -6% | 2%
CCOC(=O)C1CCN(C(=O)c2nn(-c3ccc(C)cc3)c(=O)c3c2c2ccccc2n3C)CC1 | 34%[46.1 µM] | -1%[46.1 µM] | / | -6% | -1.0% | / | / | -30%
Cc1ccccc1Nc1ncnc2c1c(-c1ccccc1)cn2-c1ccc(F)cc1 | -9%[46.1 µM] | / | / | -26% | -1.0% | / | / | -27%
O=C(NC1CCCC1)C(c1ccccc1F)N(C(=O)c1csnn1)C1CC1 (stereo not given) | -1%[46.1 µM] | -27%[46.1 µM] | 4% | / | / | 10% | 5% | 8%
O=C(c1cccnc1)N1N=C(C2CC2)CC1(O)C(F)(F)F (stereo not given) | -10%[46.1 µM] | 0%[46.1 µM] | 4% | / | / | 0% | -2% | -8%
CCOC(=O)c1c(O)c2ccccc2oc1=O | / | / | 4% | / | / | 0% | -1% | 23%
Fc1ccc(-c2csc(-c3cccnc3)n2)cc1F | / | / | -86% | / | / | 17% | -5% | 19%
COc1ccc2c(c1)C1CC(C)(NC(=O)C1C(=O)c1ccccc1)O2 (stereo not given) | 0% | 17%[46.1 µM] | -6% | -1% | -4.8% | 0% | 0% | -25%
CC(=O)N1N=C(c2cccnc2)OC1c1ccc(C(C)C)cc1 (stereo not given) | 13%[46.1 µM] | ? | -2% | / | / | 10% | 1% | 31%[activator]
Cc1ccc2nc(NC3=NCN(Cc4ccccc4)CN3)nc(C)c2c1 | / | / | 1% | 3% | 2.1% | / | 1% | /
